CBX7 inh: CBX7 inhibition, primary AlphaScreen; 1.1% of 66,000 active; O95931; normalised signal (fraction of DMSO) (test concentration not listed); AlphaScreen His6-CBX7 / biotin-H3K27me3 peptide binding; stronger effect = lower value; in the data active means normalised signal below about 0.5;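 further: 100 nL library stock added to about 20 µL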
Target sequence (O95931 whole entry, looked up): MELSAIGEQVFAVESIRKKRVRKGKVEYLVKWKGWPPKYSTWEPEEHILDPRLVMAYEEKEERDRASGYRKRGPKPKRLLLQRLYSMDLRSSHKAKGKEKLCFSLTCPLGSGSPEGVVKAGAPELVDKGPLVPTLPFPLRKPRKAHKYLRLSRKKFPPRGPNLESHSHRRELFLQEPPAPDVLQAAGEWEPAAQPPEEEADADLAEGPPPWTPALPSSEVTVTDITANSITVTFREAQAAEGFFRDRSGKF
CBX7 inh z-score: second read-out of CBX7 inh, no call of its own (marks repeat the call); z-score; measured here: z-score of CBX7 signal; some inactives read as strong as hits; reference of the scale not given here;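 same signal on another scale; lower means less binding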
An asterisk follows results filed as active; & = joins results of further samples. This is a subset; rates above refer to the full screens.

SMILES | CBX7 inh | CBX7 inh z-score
O=C(c1nn2c(C(F)(F)F)cc(-c3cccs3)nc2c1Cl)N1CCOCC1 | 1.09 | 2.88
O=C(Nc1ccccc1Br)c1ccc2c(c1)NC(=O)c1ccccc1S2 | 0.98 | -0.553
CC(=O)N1CCc2cc(S(=O)(=O)NCCC(=O)Nc3cccc(C(=O)O)c3)ccc21 | 0.984 | -0.77
Cn1c(=O)c(=O)n(C)c2cc(S(=O)(=O)NC3CCCCCCC3)ccc21 | 1.25 | 1.8
Oc1ccccc1Nc1nnc(-c2ccccc2)c2ccccc12 | 0.939 | -2.1
CC(NC(=O)c1cc2sccc2n1Cc1ccc(Cl)cc1)c1ccccc1 (stereo not drawn) | 0.96 | -0.994
COC(=O)Cc1nc(NC2CCCCC2)c2c3c(sc2n1)CCCC3 | 0.963 | -0.725
CCCCN(C)CCCNC(=O)CN1C(=O)CC(C)(C)S(=O)(=O)c2ccccc21 | 1.1 | 2.93
Cc1cc(C)c2nc(N3CCC(C(=O)N4CCN(c5ccccn5)CC4)CC3)sc2c1 | 1.1 | 1.83
COc1ccc(CCNC(=O)c2cc(-c3cccs3)on2)cc1OC | 0.843 | -2.17
CCOc1ccc(-n2c(C)nc3cc(C(=O)O)ccc32)cc1 | 1.07 | 1.3
Cc1nc(Oc2ccc(C)c(C)c2)c2c3c(sc2n1)CC(C)CC3 (stereo not drawn) | 1.02 | 0.038
Cc1oc(-c2ccccc2)cc1C(=O)Nc1cccc(Oc2ccccc2)c1 | 0.996 | -0.0987
Cc1cccnc1NC(=O)C(NS(=O)(=O)c1ccc2c(c1)CCC(=O)N2)c1ccccc1 (stereo not drawn) | 0.931 | -0.45
O=C(O)C1CC=CCC1C(=O)N1CCN(c2nc(-c3ccccc3)c3cc([N+](=O)[O-])ccc3n2)CC1 (stereo not drawn) | 1.06 | 0.606
CC(=O)Nc1ccccc1-c1nc2ccccc2[nH]c1=O | 1.04&1.03 | 1.06&1.46
CCC1Oc2ccc(Cl)cc2N(CC(=O)NCc2ccccc2)C1=O (stereo not drawn) | 1.56 | 1.13
O=C(CN1C(=O)CSc2ccc(S(=O)(=O)N3CCOCC3)cc21)NC1CC1 | 1.02 | 0.56
COC(=O)c1cc2ccsc2n1Cc1cccc(F)c1 | 0.97 | -0.877
Cc1nc2c(C(=O)NCc3ccccn3)cnn2c(C)c1Cc1ccc(F)cc1Cl | 1.04 | 1.21
CC1CCN(c2c(NCc3ccc(C(=O)NCc4cccnc4)cc3)c(=O)c2=O)CC1 | 1.12 | 0.677
Cc1cc(NC(=O)c2cc(-c3cccs3)nc3ccccc23)no1 | 1.05 | 1.42
Cc1ccc(C(=O)Nc2ccccc2C(=O)O)cc1S(=O)(=O)N1CCC(C)CC1 | 1.01 | 0.0097
CCC(=O)N1CCc2cc(S(=O)(=O)CCC(=O)N3CCc4ccccc43)ccc21 | 0.991 | -0.251
CC(C)NC(=O)CN1C(=O)CSc2cc(S(=O)(=O)N3CCCCCC3)ccc21 | 1.1 | 1.51
O=C(NCc1ccc(Cl)cc1)c1cc(-c2ccc(Cl)cc2)on1 | 1.04 | 0.0466
Cc1ccccc1CN1C(=O)CSc2ccc(C(=O)NCCN(C)C)cc21 | 1.37 | 3.54
CCc1ccc(-c2nc(CN3CCC(C(=O)NC4CCCCC4)CC3)c(C)o2)cc1 | 0.888 | -1.71
CC(C)Cn1c(CCNC(=O)c2ccccc2)nc2ccccc21 | 0.955 | -1.35
CCCCN(CC)CCNC(=O)c1cn(C2CCCC2)c(=O)c2c1c1ccccc1n2C | 0.925 | -2.13
CSc1ccc(-c2nc(-c3ccc(Br)cc3)c(-c3ccccc3Br)[nH]2)cc1 | 0.628 | -7.35
O=C(NCc1ccc(Cl)cc1)c1ccc2c(c1)N(Cc1ccccc1)CCS2 | 0.989 | -0.0146
O=C(CN1C2=NCCN2c2ccccc21)c1ccc(Cl)c(Cl)c1 | 1.01 | 0.162
Cc1ccccc1Cn1c(C(C)NC(=O)Cc2ccccc2)nc2ccccc21 (stereo not drawn) | 1.02 | 0.749
O=C1CC(c2cccc(C(F)(F)F)c2)c2cc3c(cc2N1)OCO3 (stereo not drawn) | 1.02 | 0.69
O=C(CN1N=C(c2ccccc2)CCC1=O)NCc1ccc(F)cc1Cl | 1.01 | 0.103
Cc1ccc(OCC(=O)NCCc2c[nH]c3ccccc23)cc1 | 0.973 | -0.736
CCc1ccc(-c2cc(C(=O)Nc3ccc(S(=O)(=O)NC(C)=O)cc3)c3ccccc3n2)cc1 | 1.04 | 0.393
Cc1ccc(-c2cn(-c3ccc(Cl)cc3)c(S(=O)(=O)CC(=O)Nc3ccccc3)n2)cc1 | 0.796 | -1.96
COC(=O)c1ccc2nc(C)cc(Nc3ccccc3C)c2c1 | 1.01 | 0.29
Cc1ccc(-n2nnnc2SCC(N)=O)c(C)c1 | 1.01 | 0.0573
CC(=O)N1CCc2cc(S(=O)(=O)NCCC(=O)Nc3cccc(F)c3)ccc21 | 0.941 | -1.09
CCc1ccc(NC(=O)c2cnn(-c3ccccc3)c2C2CCN(C(=O)OC(C)(C)C)CC2)cc1 | 1.13 | 1.79
COc1ccc2nc(NC(=O)c3ccccc3O)sc2c1 | 1.02 | 0.404
Clc1cccc(Cl)c1-c1nnc2ccc(N3CCCCC3)nn12 | 0.717 | -5.14
COCCNC(=O)CSc1nc(-c2ccc(Cl)cc2)[nH]c1-c1ccc(OC)cc1 | 0.96 | -1.06
CCOC(=O)c1c(NC(=O)COc2ccc(C)cc2)sc2c1CCCC2 | 1.11 | 4.51
Cc1ccc(NC(=O)c2cc(-c3ccc(Br)cc3)on2)cc1C | 1.06 | 0.0794
Cc1cccc(NC(=O)CSc2nccn2-c2cc(C)cc(C)c2)c1 | 0.891 | -0.109
COc1ccc(NC(=O)CN2C(=O)CC(C)(C)S(=O)(=O)c3ccccc32)cc1 | 0.975 | -0.748

Next entries
SMILES | CBX7 inh | CBX7 inh z-score
Cc1c(C(=O)NC2CCCC2)oc2ccc(S(=O)(=O)N3CCCCC3)cc12 | 0.895 | -2.39
O=C(NCc1ccc(F)cc1)c1ccc2c(c1)NC(=O)c1ccccc1S2 | 0.976 | -0.978
CCN(C(=O)c1cn(C)c(=O)c2cc(OC)c(OC)cc12)c1ccccc1C | 1.12 | 1.09
CN1CCN(C(=O)c2cc(-c3ccc(Cl)cc3)on2)CC1 | 0.963 | -0.0492
Cc1nc(-c2cccc(NC(=O)C(C)C)c2)cs1 | 1.1 | 0.268
CCCNC(=O)c1ccc2c(c1)nc(C)n2-c1cc(C)ccc1OC | 1.07 | 3.04
O=C1c2cccnc2C(=O)N1c1cccc(-c2nc3cc(Cl)ccc3o2)c1 | 1.02 | 0.395
CCOC(=O)c1c(C)n(-c2ccc(C)cc2)c2ccc(OCC(O)CNC(C)c3ccccc3)cc12 (stereo not drawn) | 0.756 | -10.7
COc1ccc(C2C(=O)N(CCc3ccccc3)CC(=O)N2C(C)c2ccccc2)cc1 (stereo not drawn) | 0.973 | -0.107
CCOc1ccccc1NC(=O)CCNS(=O)(=O)c1ccc2c(c1)CCN2C(C)=O | 1.02 | 0.249
O=C(c1ccc(F)cc1)N1CCCC(C(=O)N2CCCCCC2)C1 (stereo not drawn) | 0.959 | -1.14
COCCCNC(=O)c1cc2c(s1)CS(=O)(=O)C2 | 1.01 | 0.278
Cc1ccc(C(=O)Nc2sc3c(c2C(=O)N2CCCCC2)CCCCC3)cc1 | 1.16 | 2.03
Cc1cc(NC(=O)CCS(=O)(=O)c2nc(-c3cccs3)cc(C(F)(F)F)n2)no1 | 1.25 | 6.49
CCOC(=O)c1c(NC(=O)c2ccccc2Cl)sc2c1CCCCC2 | 1.34 | 11.1
Cc1cc(C(=O)Nc2ccc(Br)c(C)c2)n(-c2ccccc2)n1 | 1.04 | 1.01
O=C(Nc1ccc2c(c1)OCO2)c1cc(-c2ccc(F)cc2)on1 | 1.13 | 0.178
CC(C)(C)c1ccc(C(=O)CC2(O)C(=O)N(Cc3ccccc3)c3ccccc32)cc1 (stereo not drawn) | 0.971 | -0.0716
COc1cc2c(C(=O)NCc3ccccn3)cn(CC(C)C)c(=O)c2cc1OC | 0.925 | -1.95
Cn1ccnc1SCC(=O)Nc1sc2c(c1C(N)=O)CCC2 | 1.12 | 2.07
CSc1c(CC(=O)Nc2ccc(Cl)cc2)n(Cc2ccccc2)c2ccccc12 | 0.916 | -1.33
Cc1cc(C)n(-c2cccc(F)c2)c(=O)c1C(=O)O | 1.03 | 0.804
Clc1ccc2nc(-c3ccsc3)c(Nc3ccc4c(c3)OCO4)n2c1 | 0.801 | -2.03
O=C(O)CCCCCNc1ncnc2sc3c(c12)CCCC3 | 1.06 | 0.733
Cc1ccc(Cn2ccc(NC(=O)c3cc(-c4ccco4)on3)n2)cc1 | 1.01 | 0.169

2 of the compounds above, field by field:
Cc1ccc(C(=O)Nc2sc3c(c2C(=O)N2CCCCC2)CCCCC3)cc1
  CBX7 inh: 1.16
  CBX7 inh z-score: 2.03
Cc1cc(NC(=O)CCS(=O)(=O)c2nc(-c3cccs3)cc(C(F)(F)F)n2)no1
  CBX7 inh: 1.25
  CBX7 inh z-score: 6.49

Additional structures
The line under a structure holds: CBX7 inh, CBX7 inh z-score
> CC(=O)Nc1ccc(NC(=O)c2cc3sccc3n2Cc2ccc(Cl)cc2)cc1
 : 0.954, -1.15
> Cc1c(Cl)cccc1NC(=O)c1cnc2scc(C)n2c1=O
 : 1.1, 3.81
> O=C(Nc1cccc(F)c1)C1(S(=O)(=O)c2ccc(Cl)cc2)CC1
 : 0.982, -0.315
> COc1ccc(C(=O)NCCc2cc3c(C)ccc(C)c3[nH]c2=O)cc1OC
 : 1.03, 0.0435
> O=C(C1CCN(S(=O)(=O)c2cnc[nH]2)CC1)N(CCc1ccccc1)Cc1ccccc1
 : 0.956, -0.678
> O=C(Nc1ccc(-c2nc3ccccc3s2)cc1)c1ccccc1F
 : 1.08, 3.16
> O=C(NC1CCCC1)C1c2ccccc2C(=O)N1c1ccc(Br)cc1 (stereo not drawn)
 : 1.06, 0.695
> CC1CCN(c2oc(COc3ccccc3Cl)nc2C#N)CC1
 : 0.901, -0.617
> CC1CCCN(C(C(=O)NC2CCCC2)c2ccc(Cl)cc2)C1 (stereo not drawn)
 : 0.948, -1.3
> CC(C)(O)C#Cc1ccc(C(=O)N2CCN(Cc3ccc4c(c3)OCO4)CC2)cc1
 : 1.01, 0.267
> CCN1C(=O)c2ccccc2S(=O)(=O)c2ccc(C(=O)NCCCN(CC(C)C)CC(C)C)cc21
 : 1.16, 3.71
> COc1ccc(NC(=O)c2c(NCc3cccs3)sc3c2CCC3)cc1
 : 0.567, -8.55
> Cc1nc(C)c(-c2csc(Nc3cccc(C(=O)O)c3)n2)s1
 : 1.08&1.03, 1.94&0.0397
> CC1(C)CC(=O)c2cc(C(=O)NC3CCCCC3)c(=O)n(-c3ccc(Cl)cc3)c2C1
 : 1.07, 0.758
> COc1cccc(NC(=O)CCc2c(C)nc3cc(-c4ccccc4)nn3c2C)c1
 : 1.02, 0.727
> Cc1cccc(NC(=O)C2CCCN(S(=O)(=O)c3cnc[nH]3)C2)n1 (stereo not drawn)
 : 0.908, -1.51
> Cc1ccc(S(=O)(=O)N2CCCC(C(=O)NCc3ccc4c(c3)OCO4)C2)cc1 (stereo not drawn)
 : 1.03, 0.346
> COCCCNC(=O)CN1C(=O)COc2ccc(S(=O)(=O)N3CCC(C)CC3)cc21
 : 0.997, -0.0522
> CCOCCCNC(=O)c1ccc2c(c1)N(Cc1ccc(F)cc1)C(=O)c1ccccc1S2=O (stereo not drawn)
 : 0.841, -2.26
> COCCCNC(=O)c1n[nH]c(=O)c2ccccc12
 : 1.19, 1.2
> OCCNc1cc(-c2ccccc2)nc(-c2ccc(Br)cc2)n1
 : 1.1, 3.33
> COc1ccc(CNC(=O)CCc2cn(C)c3ccccc23)c(OC)c1
 : 1.01, 0.251
> O=C(CCCCN1C(=O)c2ccccc2C1=O)Nc1nc(-c2ccccc2)cs1
 : 1.07, 0.746
> CC(=O)Nc1ccc(NC(=O)CSc2nnc(Cc3cccn3C)n2-c2ccc(C)cc2)cc1
 : 0.919, -1.93
> O=C(CN1C(=O)CSc2ncccc21)NCc1ccccc1
 : 1.02, 0.889
> O=S(=O)(c1cccc(-c2nnc(-c3ccc(Br)cc3)o2)c1)N1CCOCC1
 : 0.845&1.01, -2.14&0.39
> COc1ccc(OC)c(CNC(=O)CCCOc2cc(=O)n(C)c3ccccc23)c1
 : 1.07, 1.1
> O=C(NCCO)c1ccc(-c2nnc(Nc3ccccc3)c3ccccc23)cc1
 : 1.03, 0.0745
> COc1ccc(OCc2nc(C#N)c(N3CCN(c4ccccc4)CC3)o2)cc1
 : 0.646, -4.48
> O=C(NC1CCCCCC1)c1nnc(Cc2ccc(Cl)cc2)o1
 : 1.14, 1.73

Entries of single compounds as entered above. Order of screens: CBX7 inh | CBX7 inh z-score
`O=C(c1ccc(F)cc1)N1CCCC(C(=O)N2CCCCCC2)C1` (stereo not drawn) is listed with 0.959 | -1.14
`O=C(CN1N=C(c2ccccc2)CCC1=O)NCc1ccc(F)cc1Cl` is listed with 1.01 | 0.103
`O=C(NC1CCCCCC1)c1nnc(Cc2ccc(Cl)cc2)o1` is listed with 1.14 | 1.73

Remaining list, next part
The line under a structure holds: CBX7 inh, CBX7 inh z-score
> COc1ccc(-n2c3c(cc(C(=O)N4CCOCC4)c2=O)C(=O)CC(C)(C)C3)cc1
 : 1.18&1, 0.758&0.0774
> CCc1c(C)sc(NC(=O)c2cc(-c3ccc(OC)cc3)on2)c1C#N
 : 1.17, 0.984
> CCN1CCN(c2cc(C)c(NC(=O)CCC(=O)O)cn2)CC1
 : 1.06, 0.199
> CCOc1ccccc1NC(=O)C(CC(C)C)NS(=O)(=O)c1ccc2c(c1)CCN2C(=O)CC (stereo not drawn)
 : 1, 0.172
> CCOC(=O)N1CCN(c2c(N3CCC(C)CC3)c(=O)c2=O)CC1
 : 1.02, 0.451
> CN(C)CCNC(=O)c1ccc2c(c1)N(Cc1cccc(Cl)c1)C(=O)c1ccccc1S2(=O)=O
 : 1.19, 1.19
> CCCCSc1nnc2c(n1)OC=Nc1ccccc1-2
 : 0.998, -0.0719
> CCOC(=O)c1cc(-c2ccccc2)n(CCC(=O)Nc2cccc(OC)c2)c1C
 : 1.02, 0.341
